gsp ag: activates gsp, the McCune-Albright syndrome mutation; gsp mutant cells, cAMP HTRF, 30 min; control for the full effect not named in the record; Potency, µM (titrated, usually from 76.9 µM), for inactives: top-dose activation (cAMP increase), usual class: activators; hit rate 0.13% among 340,000; active = well fitted activation curve with a large enough effect; inconclusive = small, poorly fitted or top-dose-only effect, or another doubt; inactive = no such curve, though single readings can be large or run the other way; cell line not stated here;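 further: phosphodiesterase inhibitor Ro 20-1724 added with compounds to block cAMP breakdown; potency means the concentration at half of the fitted maximal effect; nearly all actives have a fitted effect of over 60% in size; about a fifth of the inactives were tested at one dose only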
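Cells in DMEM/10% FBS with G418 were pretreated with compounds in DMSO plus […] (300 uM stock) for 30 min at 37C. cAMP was measured by HTRF (cAMP-d2 plus anti-cAMP antibody-K) after 30 min at room temperature.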
D2 ag: human D2 receptor agonism in beta-arrestin assay | P14416 | DiscoveRx PathHunter D2 beta-arrestin, luminescence, 90 min; 100% = 57 uM dopamine signal | activation, % (no concentration beside the values) | hit rate 0.084% among 360,000 | AID 624465; in the data active = activation above about 40%; inconclusive = about 15% to 40%; inactive = below about 15%; further: compound concentration not given in the record; the text of the record calls up to 30% inactive
Target sequence (P14416 whole entry, looked up): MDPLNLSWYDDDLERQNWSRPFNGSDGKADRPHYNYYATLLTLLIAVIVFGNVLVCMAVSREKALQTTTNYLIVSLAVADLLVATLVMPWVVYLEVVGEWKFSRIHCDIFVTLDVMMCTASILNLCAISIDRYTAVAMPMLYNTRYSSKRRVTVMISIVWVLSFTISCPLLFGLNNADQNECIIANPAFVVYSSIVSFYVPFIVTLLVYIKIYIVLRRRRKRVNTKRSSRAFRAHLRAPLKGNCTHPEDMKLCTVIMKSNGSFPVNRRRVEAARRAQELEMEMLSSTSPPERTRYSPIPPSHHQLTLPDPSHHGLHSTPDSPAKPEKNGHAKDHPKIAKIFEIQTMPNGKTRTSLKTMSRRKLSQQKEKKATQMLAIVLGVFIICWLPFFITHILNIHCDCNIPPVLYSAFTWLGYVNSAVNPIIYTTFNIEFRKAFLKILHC
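DiscoveRx PathHunter D2 beta-arrestin cells (2,100/well) attached overnight, then compound-stimulated 90 min at 37 C in HBSS/10 mM HEPES/0.1% Tween-20 buffer; beta-galactosidase complementation read by luminescence after 1 h at ambient temperature. Dopamine 57 uM final (EC100) as control.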
D2 potentiator: potentiates the human D2 dopamine receptor allosterically; P14416; DiscoveRx D2 beta-arrestin cells, luminescence, 90 min; 100% = 57 uM dopamine signal; potentiation, % (concentration not given with the values); hit rate 0.23% among 360,000; active = potentiation of 50% or more; inconclusive = 30% to 50%; inactive = 30% or less;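 further: compound concentration not given in the record; tested on top of an EC20 dose of dopamine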
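PathHunter beta-arrestin assay in DiscoveRx D2 cells. Compounds were added with an EC20 of dopamine (50 nM final) for 90 min at 37 deg C. Luminescence was read 1 h after detection reagent, with 57 uM dopamine as the EC100 control.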
CtBP-E1A blk: inhibitors of CtBP/E1A interaction. activity change, % (concentration not given with the values). hit rate 0.49% among 340,000. AlphaScreen GST-E1A/His-CtBP binding, 1536-well; stronger effect = lower value; control for the full effect not named in the record; in the data active means activity change below about -65%; inconclusive means about -30% to -65%; inactive means above about -30%; further: on the % scale 0 is the no-effect control and ±100 the full control effect
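Homogeneous bead-based format: GST-tagged E1A captured on glutathione donor beads, His-tagged CtBP on nickel acceptor beads; compounds precede bead addition by 2 h at 37 °C.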
Six1-Eya2 blk: Six1/Eya2 interaction inhibition | Q15475+O00167 | AlphaScreen GST-Six1/His-Eya2 binding, biochemical; stronger effect = lower value; control for the full effect not named in the record | activity change, % (concentration not given with the values) | hit rate 0.56% among 360,000 | AID 651725; in the data active = activity change below about -65%; inconclusive = about -30% to -65%; inactive = above about -30%; further: on the % scale 0 is the no-effect control and ±100 the full control effect
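GST-Six1 + His-Eya2 (5X stock: 250/500 nM); Tris pH 8.0, 300 mM NaCl, 0.05% BSA, 0.02% Tween 20; GSH donor/Ni acceptor beads; 1 h 37 °C dark; AlphaScreen readout.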
gsp antag: antagonists of gsp mutant (McCune-Albright syndrome); hit rate 0.4% among 340,000; Potency, µM (series often up to 76.9 µM), inactives show at the highest dose activity change, negative = inhibition, most hits filed as inhibitors; AID 624288; gsp-mutant cells, cAMP HTRF, 30 min; control for the full effect not named in the record; active = falling curve of any shape with a large fitted effect; inconclusive = falling curve, mostly with a smaller effect; inactive = flat or rising curve; cell line not stated here;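 further: intracellular cAMP measured with PDE inhibitor Ro 20-1724 present during compound exposure; potency means the concentration at half of the fitted maximal effect; on the % scale 0 is the no-effect control and ±100 the full control effect; nearly all actives have a fitted effect of over 65% in size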
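HTRF cAMP read-out (cAMP-d2 plus anti-cAMP antibody-K in lysis buffer, 30 min RT). Before lysis, cells are exposed to compounds with […] for 30 min at 37C in DPBS containing Ca/Mg, BSA and Tween 20.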
Starred values were filed as active, the others as inactive; ? = inconclusive; nt = not tested or not shown; [ ] = another dose, or the depositor's remark.

SMILES	gsp ag	D2 ag	D2 potentiator	CtBP-E1A blk	Six1-Eya2 blk	gsp antag
CC(CCc1ccccc1)NC(=O)C1CCN(S(=O)(=O)N2CCCCC2)CC1 (centres undefined)	-26%	1.7	-1	3	5	-12%
O=c1[nH]ncc(N2CCN(Cc3ccccc3)CC2)c1Cl	5%[15.4 µM]	0.5	-15	nt	5	14%
Cc1csc(SC(C)C(=O)Nc2ccc(S(=O)(=O)N3CCCC3)cc2)n1 (centres undefined)	4%	-5.9	2	2	2	0%
O=C(NCCS(=O)(=O)NCC1CCCO1)c1ccccc1 (centres undefined)	-1%[15.4 µM]	1.7	4	-22	5	2%
COc1ccc(-c2cccc(C(=O)NCC(=O)O)c2)cc1	-57%[inhibitor]	-0.4	-4	10	1	-15%
CCOC(=O)c1c(C)[nH]c(C(=O)OCC(=O)N2CCCC2=O)c1C	19%	-1.9	-4	-1	-4	6%
O=c1[nH]cnc2c1ncn2[C@@H]1C[C@@H](O)[C@H](CO)O1	2%	-5.6	0	6	2	-14%
O=S(=O)(Nc1cccnc1)c1ccc(Br)c2ccccc12	?	-1.9	-4	nt	-3	8%
O=C(Cc1ccc([N+](=O)[O-])cc1)NCCS(=O)(=O)N1CCN(c2ccccc2)CC1	-24%	-1.7	-8	0	2	nt
CCOC(=O)[C@@H]1[C@H]2COc3cc(OC)ccc3[C@H]2N2C(=O)N(c3ccc(Br)cc3)C(=O)[C@]12C	?	-3.6	2	-1	-5	-12%
CC1(C)CC(N2CCN(Cc3ccccc3)CC2)=CC(=[N+]2CCCCC2)C1	12%[15.4 µM]	0.8	-3	0	13	-1%
O=c1c2cc3c(cc2[nH]c(=S)n1C1CCN(Cc2ccccc2)CC1)OCO3	-13%	-1.8	-29	-7	0	-1%
COc1ccc(-c2csc(N3C(=O)C4C5c6ccccc6C(c6ccccc65)[C@@H]4C3=O)n2)cc1 (some centres undefined)	28%	0.3	-15	0	-10	12%
c1ccc2c(c1)CNC1(CCCCC1)C2	-40%[inhibitor]	-1.7	-10	5	11	2%
COc1cc(NC(=O)CSc2nnc3c(C)cc4c(C)ccc(C)c4n23)c(C(=O)O)cc1OC	-8%[15.4 µM]	-3.7	1	1	-5	8%
O=C(CCNC(=O)c1ccccc1Cl)Nc1nc(-c2ccc3ccccc3c2)cs1	8%	-1.8	-3	1	-7	-27%
O=S(=O)(NCc1ccccn1)C(F)(F)F	4%	-4.0	-15	-10	-5	11%
Cc1cc(SCC(=O)c2cc(C)n(C)c2C)nc2ccccc12	4%	0.3	-5	-2	13	4%
CCNCCNC(=O)c1c(O)c2c([nH]c1=O)CCCC2	-22%	-1.5	-11	10	-6	5%
CCOC(=O)Nc1ccc2c(c1)Sc1ccccc1N2C(=O)CCN1CCOCC1	-36%[inhibitor]	-1.6	8	0	-4	0%
S=C(NCC1COc2ccccc2O1)Nc1ccccc1 (centres undefined)	-1%[15.4 µM]	-0.8	-19	-14	-1	-3%
NC(c1csc(Nc2ccc(C(=O)NCCO)cc2)n1)C1CCCCC1 (centres undefined)	nt	-2.9	-19	-7	-4	nt
CC(C)(C)OC(=O)C[C@H]1C/C=C\C[C@@H](CC(=O)N(CCO)Cc2ccccc2)C(=O)NCCOC1=O	-12%	-3.1	-3	9	1	21%
CCN(CC(=O)Nc1ccccc1C(F)(F)F)C(=O)COc1cccc2c1OC(C)(C)C2	14%[15.4 µM]	-1.8	-3	-8	9	-5%
O=C(O)C(Cc1ccccc1)N1C(=O)CCC1=O (centres undefined)	1%[15.4 µM]	-3.3	-4	-1	16	5%
The list goes on:
SMILES	gsp ag	D2 ag	D2 potentiator	CtBP-E1A blk	Six1-Eya2 blk	gsp antag
COCCNC(=O)CCc1c(C)nc2c(c(C)nn2-c2ccc(C)cc2)c1C	-2%	-4.5	-15	nt	4	-17%
O=C(COc1ccc(Cl)cc1Cl)Nc1ccc(-c2ccc(N3CCOCC3)nn2)cc1	2%[15.4 µM]	-2.0	-3	2	-11	-9%
COc1ccc(N2CC(NC(=O)NC(C)(C)C)CC2=O)cc1 (centres undefined)	4%	-0.8	-2	-2	9	11%
COc1ccccc1CNC(=O)CCS(=O)(=O)c1ccc2c(c1)CC(C)N2C(=O)C1CC1 (centres undefined)	-1%	-1.7	-1	3	5	0%
COc1cc(OC)cc(C(=O)Nc2ccc(N(C)C)c3ccccc23)c1	-4%	3.9	3	2	10	-17%
CCN(C(=O)CSc1nnnn1C)C1CCCCC1	6%	3.2	-5	4	-1	6%
CCCCSc1nnc(-c2cc3c(C(F)(F)F)nn(C)c3s2)n1C	13%	-3.8	-18	16	4	-12%
Cc1cccc(CCNS(=O)(=O)c2cc3c(cc2C)NC(=O)CO3)c1	-75%[inhibitor]	-0.8	3	-4	-1	-1%
O=C(Nc1nc2c(F)c(F)c(F)cc2s1)c1ccco1	-4%	-1.4	2	2	16	-6%
CCCCN(C(=O)C1=NN(c2ccccc2)C(=O)CC1)c1c(N)n(CCC)c(=O)[nH]c1=O	-30%[inhibitor]	-3.9	-7	0	2	4%
O=C1CC(N2CCN(c3ccc(O)cc3)CC2)C(=O)N1c1ccc2c(c1)OCO2 (centres undefined)	1%	1.4	12	2	-3	-1%
Cc1c(Cl)cnc(NC(=O)COC(=O)C(NC(=O)c2ccco2)C(C)C)c1Cl (centres undefined)	?	-2.2	-8	6	-1	-8%
CCOc1ccc(NC(=S)N(CCOC)C(C)c2cccnc2)cc1 (centres undefined)	22%[15.4 µM]	-3.3	-3	-6	0	6%
COc1ccc(C(OC(=O)c2ccco2)C(=O)NCC2CCCO2)cc1 (centres undefined)	-31%[inhibitor]	1.0	-12	2	3	10%
O=C(CN(Cc1ccccc1)S(=O)(=O)c1ccc(F)cc1)NCCC1=CCCCC1	-46%[inhibitor]	0.8	-3	12	8	0%
CCCC(C(=O)O)N1C(=O)/C(=C/c2cccn2C)SC1=S (centres undefined)	0%	-5.1	-18	-10	-16	-21%
O=C(NCc1ccccc1)c1cccc(NS(=O)(=O)c2cccc3cccnc23)c1	5%	-0.7	-6	1	2	1%
O=C(CN1C(=O)C2CCCCC2C1=O)N1CCN(c2ncccn2)CC1 (centres undefined)	-10%[15.4 µM]	2.2	-3	0	4	3%
COC(=O)NCc1ccc(CNC(=O)OC)cc1	7%	-0.8	-2	3	7	-7%
NS(=O)(=O)c1ccc(N/C=C\C(=O)c2cccc3ccccc23)cc1	-3%	1.4	4	-9	-19	-9%
CCc1ccc(C(=O)Nc2ccc3nc(C)ccc3c2)cc1	26%	4.4	-27	1	0	-6%
COc1ccccc1NC(=O)c1ccc(NC(=O)c2ccc(=O)[nH]c2)cc1	2%	-2.4	-1	0	24	-6%
Cc1onc(-c2ccccc2)c1C(=O)Nc1ccc2c(c1)OCCO2	-22%	-0.7	-19	9	3	9%
O=C(CNC(=O)c1ccccc1F)NCCc1ccc(Cl)cc1Cl	8%[15.4 µM]	-3.0	-9	9	21	-1%
CSc1ccccc1C(=O)NC1CCCC1	-5%	-0.6	-6	-21	-3	0%
(list continues)
SMILES	gsp ag	D2 ag	D2 potentiator	CtBP-E1A blk	Six1-Eya2 blk	gsp antag
Cc1cc(Cl)ccc1OCC(=O)N/N=C/c1ccncc1	0%[15.4 µM]	1.1	-12	1	-3	-19%
CCN(CC)S(=O)(=O)c1ccc(Cl)c(NC(=O)COC(=O)c2ccc(O)cc2)c1	-18%[15.4 µM]	0.3	1	-2	-3	-49%
Cc1ccc(Cn2nnc3c(=O)[nH]c(C4CCN(S(=O)(=O)c5ccc(F)cc5)CC4)nc32)cc1	19%	-1.6	0	-7	-8	1%
O=C(c1cc([N+](=O)[O-])ccc1N1CCOCC1)N1CCN(c2ccc([N+](=O)[O-])cc2)CC1	-51%[inhibitor]	-4.5	-30	0	13	-34%
O=C(Nc1ccc2c(c1)OCO2)c1ccc2sc([C@@H]3O[C@H](CO)[C@H](O)[C@H](O)[C@H]3O)nc2c1	nt	-6.3	-10	1	-2	nt
O=C(Nc1ccc(-c2csnn2)cc1)C(Cl)(Cl)Cl	5%	2.8	-12	nt	0	4%
Cc1ccc(NC(=O)C2CCN(C(=O)OC(C)(C)C)CC2)cc1S(=O)(=O)N1CCCCC1	-22%	-0.5	-1	0	14	-19%
CC(C)CNS(=O)(=O)c1ccc(C(=O)Nc2ccc3c(c2)OCO3)cc1	-20%	5.0	-4	-1	-7	11%
CC(C)n1c(=S)[nH]c2c1c(=O)[nH]c(=O)n2C	23%	-5.6	4	1	0	10%
COc1ccc(C2=NS(=O)(=O)N(C)C(C(=O)NCc3ccc4c(c3)OCO4)=C2)cc1OC	-6%	-6.7	-7	-1	-7	-16%
CCCC(C)(C)C(=O)N1CCC1(C)C(=O)Nc1cccc2ccccc12 (centres undefined)	nt	-5.8	1	-4	0	nt
O=C(NC1CCCCCC1)C(=O)NC1CC1	-5%	6.7	-4	11	8	6%
CCc1nnc2n1N=C(c1ccc([N+](=O)[O-])cc1)CS2	10%[15.4 µM]	-1.0	9	0	1	13%
CCCCCNC(=O)Cc1ccc(OC)cc1	1%	-0.1	-21	13	12	5%
O=C(CN1CCOCC1)Nc1cccc(C(F)(F)F)c1	-5%[15.4 µM]	-2.8	-13	7	3	20%
CC1CCC(C(C)C)C(OC(=O)COC(=O)c2ccc(=O)[nH]c2)C1 (centres undefined)	13%	0.6	-7	0	-1	-12%
CCOC(=O)[C@H]1[C@H]2COc3cc(OC)ccc3[C@@H]2N2C(=O)CN(Cc3ccc(Cl)cc3)C(=O)[C@@]12C	-15%	-1.6	-5	3	-1	-23%
O=C(Cc1ccc(S(=O)(=O)N2CCOCC2)s1)Nc1ccccc1N1CCCC1	-12%	1.8	12	-7	0	7%
COc1ccc(CCNC(=O)CCc2nnc(Cc3ccc4c(c3)OCO4)o2)c(OC)c1	5%	0.2	-16	0	5	2%
CC(/C=C/c1cccc([N+](=O)[O-])c1)=N\NC(=O)c1ccncc1	?	-1.1	-3	-23	-2	0%
Clc1nc(-c2ccccc2)ncc1Oc1ccccc1	5%	-1.7	8	nt	38	4%
CCN1/C(=C2\C(=O)N(C)C(=S)N2c2ccccc2)C=Cc2ccccc21	9%[15.4 µM]	-2.7	-7	?	-22	-19%
CC(C)(C)c1ccc(-c2nc(C#N)c(NCc3cccnc3)o2)cc1	-4%	-1.0	-3	-2	-8	-5%

Ordered by number of heavy atoms (rising): some entries from above.
SMILES	gsp ag	D2 ag	D2 potentiator	CtBP-E1A blk	Six1-Eya2 blk	gsp antag
CC(C)n1c(=S)[nH]c2c1c(=O)[nH]c(=O)n2C	23%	-5.6	4	1	0	10%
O=C(CN1CCOCC1)Nc1cccc(C(F)(F)F)c1	-5%[15.4 µM]	-2.8	-13	7	3	20%
Cc1cc(Cl)ccc1OCC(=O)N/N=C/c1ccncc1	0%[15.4 µM]	1.1	-12	1	-3	-19%
CCN1/C(=C2\C(=O)N(C)C(=S)N2c2ccccc2)C=Cc2ccccc21	9%[15.4 µM]	-2.7	-7	?	-22	-19%
COc1ccc(C2=NS(=O)(=O)N(C)C(C(=O)NCc3ccc4c(c3)OCO4)=C2)cc1OC	-6%	-6.7	-7	-1	-7	-16%

From PubChem
